From PubChem
BJeLR lethal – kills HRASV12-expressing BJeLR cells; BJeLR (HRASV12) viability, CellTiter-Glo ATP luminescence, 48 h; reference of the scale not given here; inhibition, % (concentration not given with the values); hit rate 0.17% among 300,000; AID 1554;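 active = replicate mean above 50%; inconclusive = above 50% but judged a plate artefact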;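 also: 50 nL library stock added to about 25 µL; numbers are from one replicate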
Autofluor counter – counter-screen for toxin protease inhibitors: compound fluorescence. compound autofluorescence counterscreen, microsphere flow cytometry; hits give high values. fluorescence intensity (test concentration not listed). hit rate 3.1% among 360,000. AID 624483;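 active = at least 3 SD above the mean of all compounds, about 16000 in these data; inconclusive = too few beads counted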;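 also: 100 nL of 1 mM stock went into each well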
Sa RN4220 lethal – S. aureus RN4220 growth inhibition; OD600, 16 h; inhibition, % (test concentration not listed); hit rate 0.33% among 330,000;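 active = z-score of -3 or lower and OD600 up to 0.18 on both plates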;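 also: plate controls were untreated cells for no effect and reference antibiotic for full effect; stock transfer was 100 nL into about 80 µL; one replicate is shown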
PrP 5UTR inh – inhibition of PrP 5' UTR reporter expression; hit rate 0.35% among 340,000; inhibition, % (no concentration beside the values); cell-based PrP 5' UTR mRNA reporter, plate reader;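 active = every replicate at 50% or more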;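 also: 0 = median of the neutral control wells; tested in H4 reporter cells; numbers are from one replicate; inactives centre near -14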
ugtP null kill – growth inhibition of S. aureus ugtP deletion strain. S. aureus RN4220 ugtP deletion, OD600 growth, 16 h; some inactives read as strong as hits. growth inhibition, % (concentration not given with the values). hit rate 0.54% among 330,000. AID 1259309;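 active = z-score under -3 and OD600 up to 0.15 on both plates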;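 also: plate controls were untreated wells for no effect and antibiotic for full effect; wells of about 80 µL received 100 nL stock; the first replicate is given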
Mtb hypoxia inh – inhibitors of hypoxia-regulated fluorescent reporter in Mycobacterium tuberculosis; M. tuberculosis hypoxia-regulated fluorescent reporter, fluorescence; fluorescence inhibition, % (no concentration beside the values); hit rate 0.1% among 300,000; AID 1159583;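 active = 35 to 45% if threefold the growth effect, above 45% if 1.5-fold the growth effect; inactive = the rest, general growth blockers included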;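 also: wells of about 50 µL received 100 nL stock; 0% = vehicle wells and 100% = reference inhibitor wells; whole bacteria with a GFP reporter of the hypoxia response; strong numbers were not always called active; many hits fall short of the cut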
Mtb hypoxia inh growth – recorded beside Mtb hypoxia inh, whose call it bears; growth inhibition, %; measured here: M. tuberculosis growth (absorbance);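 0% = vehicle and 100% = reference antibiotic; read after six days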
The depositor's hits bear a star; u = inconclusive; x = no result given; & = joins results of further samples.

SMILES	BJeLR lethal	Autofluor counter	Sa RN4220 lethal	PrP 5UTR inh	ugtP null kill	Mtb hypoxia inh	Mtb hypoxia inh growth
CC(C)(Oc1ccc(Cl)cc1)C(=O)OCC(=O)NCCc1ccc(S(N)(=O)=O)cc1	x	u	5.8	-2	7	1	-1
COc1cnc(N(C)C)nc1Sc1cccc(Cl)c1	-7	2315	0.4	-2	1	x	x
Cc1cc(NCc2ccccn2)n2c(nc3ccccc32)c1C#N	4	4409	5.2	-10	21	3	-7
Nc1ccc2c(c1)OC1(CCCC1)O2	-3	4390	2.0	35	5	-9	10
Cc1nnc(SCC(=O)NC(C)(C)C)n1CCc1ccccc1	8	3513	9.1	-2	5	x	x
CC(=O)C1C(c2ccc(F)cc2)C2C(C)=NN=C2CC1(C)O (centres undefined)	7	2549	2.7	-19	6	10	1
C=CCC(C#N)(c1ccc(OC)c(OC)c1)c1cnccn1 (centres undefined)	-7	4240	3.2	-10	2	4	8
COc1ccc(NC(=O)CCN2CCN(S(=O)(=O)c3ccc(OC)cc3)CC2)cc1	21	4381	-0.9	-3	-4	0	8
Cc1cccc(C(C)C)c1NC(=O)CN1C(=O)NC(Cc2ccccc2)C1=O (centres undefined)	2	u	6.3	-11	-4	3	3
CC1(C)CC(=O)C(C(O)c2ccc([N+](=O)[O-])cc2)C(C)(C)N1 (centres undefined)	8	3980	11	-9	17	17	8
Cc1ccc(OCC(=O)OC(C)CN2CCCCC2)cc1 (centres undefined)	6	3977	5.4	-8	5	15	6
CC1CN(C(C)CO)C(=O)c2cc(NC(=O)C3CCCCC3)ccc2OC1CN(C)S(=O)(=O)c1ccccc1 (centres undefined)	x	x	-1.0	x	-19	-2	12
CCOC(=O)C1=C(C)N(CCCCCC(=O)O)C(=O)NC1c1cccc([N+](=O)[O-])c1 (centres undefined)	-16	3640	x	-15	x	x	x
CCc1ccc2[nH]cc(S(=O)(=O)c3ccc(C)c(C)c3)c(=O)c2c1	-1	3521	4.9	-15	7	8	1
CCN(CC)S(=O)(=O)c1ccc(C(=O)Nc2nnc(COC)o2)cc1	3	2106	1.5	-8	9	6	6
O=C(CC1CCCCC1)NCCOc1ccccc1	-2	7687	4.0	-37	12	15	14
CNC(=O)C1CC(=O)N(c2ccc(OCC(=O)N3CCCC3)cc2)C1 (centres undefined)	-6	2883	3.4	-8	15	6	-1
CCOc1ncccc1C(=O)Nc1cccc(-n2cnnn2)c1C	x	x	4.8	x	4	8	6
CC=C(C)C(=O)NCCN1C2=NCC(C)N2CC1Cc1ccc(OC)cc1 (centres undefined)	x	x	4.0&5.0	x	4&-13	3&13	7&10
O=C(CCC(=O)c1ccc(Cl)cc1)NCc1ccccc1	3	4980	1.9	-17	5	2	-2
COc1ccc(NC(=O)CN2C(=O)COc3ccccc32)cc1OC	0	4009	-1.3	-1	3	3	10
CCN(CC)c1ccc(NC(=S)NC(=O)Cc2ccccc2)cc1	-7	2112	3.1	-31	80	5	12
N#Cc1cccnc1N1CCN(C(=O)c2ccco2)CC1	0	5390	1.9	-16	0	11	4
CN(CC1CCOCC1)C(=O)CC1C(=O)NCCN1Cc1ccc(Cl)c(F)c1 (centres undefined)	-7	4701	0.6	-15	3	0	0
COc1ccc(-c2nn3c(-c4ccccc4)nnc3s2)cc1	3	20178*	12	-9	-14	6	6
CC(=O)Nc1cc(C(=O)OCC(=O)c2ccc(Cl)cc2Cl)ccc1C	-4	5269	4.5	-22	-7	-9	-1
O=C(NCCc1ccccc1)C(=O)c1c(-c2ccccc2)[nH]c2ccccc12	4	6028	-3.2	-33	-10	-10	4
Cc1ccnc(NS(=O)(=O)c2ccc(N3C(=O)c4c(Cl)c(Cl)c(Cl)c(Cl)c4C3=O)cc2)n1	3	8791	0.5	-15	7	8	5
O=C(NC(=S)N1CCOCC1)c1cc2ccccc2o1	4	4637	2.8	-16	6	2	5
c1ccc(-n2ncc3c(NCc4cccnc4)ncnc32)cc1	-1	2941	-17	-48	-8	4	8
O=S(=O)(Cc1ccccc1Cl)NCCc1ccccc1	4	2508	12	-19	9	13	10
COCCCN(Cc1ccccn1)S(=O)(=O)Cc1ccccc1	x	4770	2.1	0	-2	x	x
Cc1ccc(/C=C2\SC(=O)N(CCC(=O)N3CCN(C)CC3)C2=O)cc1	1	4154	4.4	-34	7	5	-10
O=C(O)c1ccc(CSc2nnc(COc3ccccc3)o2)cc1	-3	4864	5.7	-17	10	9	3
COc1ccc(-n2c(SCC(=O)Nc3ccccc3C)nc(O)c(Cc3ccccc3)c2=O)cc1	-12	5173	-7.0	-19	14	8	7
COc1cc(OC)c2ccc(=O)oc2c1C(CC(=O)N1CCOCC1)c1ccc2c(c1)OCO2 (centres undefined)	-4	3343	3.6	-5	-1	5	2
COc1ccc(NS(=O)(=O)c2cccc(NC(=O)COc3ccccc3[N+](=O)[O-])c2)cc1	x	3475	7.8	-13	5	10	8
O=C(O)c1cccc(NS(=O)(=O)c2cccc3nsnc23)c1	-9	19434*	-3.9	-5	-3	2	8
COc1ccccc1Cn1c(=S)[nH]c2cc(C(=O)N3CCN(c4ccccc4OC)CC3)ccc2c1=O	-6	4799	0.1	-20	2	-7	4
Cc1ccc(C(C)C)c(OCC(=O)OCc2c(C)noc2C)c1	-7	4308	7.6	-2	8	x	x
CN(C)/C=C(\C(=O)c1cccc(Cl)c1)c1nnnn1-c1ccccc1	5	5314	2.8	-19	3	9	-2
O=C(CSc1nnc(-c2ccc(F)cc2)o1)NC1CCCCC1	-4	4317	6.6	-19	5	12	9
Nc1c(C(=O)O)sc2nc3c(cc12)CCCC3	-3	3851	11	x	-3	3	3
CC(C)C(=O)c1cn(Cc2ccccc2C#N)c2ccccc12	-3	3314	-12	-6	1	15	15
COc1ccc(-c2cn(-c3ccc(C)c(Cl)c3)c(=S)[nH]2)cc1OC	-5	2824	0.0	14	5	10	19
Nc1c(C(=O)NC2CCCC2)sc2nc(-c3cccs3)ccc12	-29	3069	9.0	-52	10	5	16
Fc1ccc(CNc2ccc(N3CCN(Cc4ccccc4)CC3)cc2)cc1	7	3136	3.6	-4	5	0	-1
Clc1cccc(Nc2ncnc3ccc(Br)cc23)c1	-7	5868	10	0	-16	9	-2
COc1cc2c(cc1N/C=C(\C#N)c1nc(-c3ccccc3)cs1)oc1ccccc12	-4	5967	x	-18	x	x	x
COc1ccccc1NCCC(=O)OCC(=O)Nc1cc([N+](=O)[O-])ccc1F	x	3830	0.8	-13	7	9	2
COc1cc(Br)c(-c2sc(Nc3ccccc3)n[n+]2-c2ccccc2)cc1OC	1	3508	1.5	-16	6	-1	5
O=C(COc1ccccc1F)N1CCc2ccccc2C1	-10	2154	1.9	-33	8	11	11
O=C(CNc1ccccc1)N/N=C/c1c(O)ccc2ccccc12	1	3707	x	2	x	x	x
CCN(CC)C(=O)c1ccc2c(c1)nnn2C	3	2088	0.5	-11	1	9	7
Cc1c(CN2CCN(c3cccc(C(F)(F)F)c3)CC2)c(=O)n(-c2ccccc2)n1C	-10	3477	-2.4	-11	5	x	x
Cc1cc(C)n(-c2nnc(C)n2N=Cc2cc(Br)ccc2OCc2ccccc2)n1	x	x	-14	x	-1	8	4
CN(C)S(=O)(=O)c1ccc(C(=O)NNC(=O)C23CC4CC(CC(C4)C2)C3)cc1	x	8205	1.7	-23	3	2	7
COc1ccccc1NC(=O)c1sc2nc3n(c(=O)c2c1C)CCC3	4	4329	6.8	1	12	9	6
Cc1nn(-c2cccc(Cl)c2)c2c1C(c1cccnc1)C(C#N)=C(N)O2 (centres undefined)	8	4139	0.3	-5	-8	-1	13
O=C(C[n+]1ccc(C=NO)cc1)N1CCCCC1	x	x	2.9	x	3	7	12
More structures:
SMILES	BJeLR lethal	Autofluor counter	Sa RN4220 lethal	PrP 5UTR inh	ugtP null kill	Mtb hypoxia inh	Mtb hypoxia inh growth
CCOC(=O)c1c(NC(=O)COc2ccccc2)sc2c1CC(C)(C)NC2(C)C	8	4347	-2.6	-15	-6	11	26
Cc1cc2nccc(-c3ccc(OCCCF)cc3)n2n1	-6	3621	6.5	6	12	1	10
CC(C)C(=O)Nc1c2c(nn1-c1ccc(F)cc1)CSC2	-11	4373	3.7	-18	1	2	-6
CCOc1ccccc1C(=O)Nc1cc2c(cc1N1CCCC1)n(CC)c(=O)n2CC	-2	4538	-4.3	11	-15	-3	1
Cc1cccc(OCC(=O)NNC(=O)c2cc3ccccc3oc2=O)c1	7	2266	-0.4	-22	8	x	x
CCCCN(CCCNC(=O)c1c(C)cc(=O)oc1C)c1ccccc1	-1	22469*	1.8	-41	-11	4	3
S=C(NC1CCCCC1)N1CCN(C2CCCCC2)CC1	-1	3313	4.5	-9	5	11	-1
O=C(COC(=O)C1CCC(=O)N1)Nc1ccccc1OC(F)F (centres undefined)	x	3476	2.8	-14	8	18	16
Cc1ccc(S(=O)(=O)NCC2CCC(C(=O)NCc3cccnc3)CC2)cc1 (centres undefined)	-2	4425	2.7	-9	2	5	-2
Nc1c(-c2ccc(Cl)cc2)cnn1-c1ccccc1	1	3864	0.3	-74	4	-9	10
N#Cc1c(N)nc2c(c1-c1ccc(F)cc1)CCC2	-13	x	0.0	-9	-2	12	13
O=C(NC1(C(=O)NC2CCCCC2)CCCCC1)c1ccc2c(c1)OCO2	-3	3250	-0.8	-7	3	x	x
CCOCN(C(=O)Cn1c(CO)nc2ccccc21)c1c(C)cccc1CC	-2	21035*	4.0	-25	-1	0	4
Oc1c(Br)cc(Br)cc1Br	x	5769	18	-8	17	9	2
Cc1nn(-c2ccccc2)c(Cl)c1/C=N/NC(=O)c1cccnc1	2	2544	x	-9	x	x	x
O=S(=O)(Nc1ncccn1)c1ccc(-n2cnnn2)cc1	-3	3004	7.6	-5	5	22	10
COC(=O)c1ccc([N+](=O)[O-])cc1N1C(=O)C2C3CCC(C3)C2C1=O (centres undefined)	1	2142	-0.7	-34	6	-1	5
CCOC(=O)c1c(C)cc(=O)oc1C	-7	3112	-0.9	-25	2	x	x
C=CCN1C(=O)C2(C(C(=O)OCC)=C(N)Oc3ccccc32)c2c1c1ccccc1oc2=O (centres undefined)	4	4136	6.3	-9	15	6	-1
O=C(Nc1ccc(F)cc1)Nn1cnnc1	3	3960	5.9	-24	11	9	7

Ordered by formula weight (smallest number first): some entries from above
SMILES	BJeLR lethal	Autofluor counter	Sa RN4220 lethal	PrP 5UTR inh	ugtP null kill	Mtb hypoxia inh	Mtb hypoxia inh growth
CCOC(=O)c1c(C)cc(=O)oc1C	-7	3112	-0.9	-25	2	x	x
Nc1c(-c2ccc(Cl)cc2)cnn1-c1ccccc1	1	3864	0.3	-74	4	-9	10
Cc1nn(-c2ccccc2)c(Cl)c1/C=N/NC(=O)c1cccnc1	2	2544	x	-9	x	x	x
CCCCN(CCCNC(=O)c1c(C)cc(=O)oc1C)c1ccccc1	-1	22469*	1.8	-41	-11	4	3

The list goes on:
SMILES	BJeLR lethal	Autofluor counter	Sa RN4220 lethal	PrP 5UTR inh	ugtP null kill	Mtb hypoxia inh	Mtb hypoxia inh growth
CNc1ccccc(C(=O)/C=C/c2ccccc2OC)c1=O	-1	2380	1.3	-15	-1	8	-9
O=C(Nc1ccc(Cl)cc1)c1ccncc1	-5	3071	7.2	-25	-1	12	13
COC(=O)CNS(=O)(=O)c1ccc(C)cc1	0	2804	2.3	-35	1	x	x
Cc1ccc2sc(N(CCCN(C)C)C(=O)c3ccc(S(=O)(=O)N(C)C)cc3)nc2c1C	10	2657	4.3	-9	5	6	3
CC(=O)c1ccc(OCCn2c(SCC(=O)O)nc3ccccc32)cc1	0	3102	4.2	-14	14	-7	-4
CN1CCN(c2nc3c(c(=O)n(C)c(=O)n3C)n2Cc2ccccc2F)CC1	19	x	0.9	-15	1	12	7
CSCC[C@H](NC(=O)C(C)(C)Oc1ccc(Cl)cc1)c1nc2ccccc2[nH]1	-4	2160	-0.1	-23	9	1	6
Cc1cc2c(c(=O)o1)C(C1C=CCCC1)C(C#N)=C(N)O2 (centres undefined)	-4	6579	6.0	-1	6	10	6
C=CCOc1ccc(C(=O)Nc2ncn[nH]2)cc1	-2	3977	2.9	-35	10	5	-13
